T cruzi inh – T. cruzi replication inhibition | T. cruzi beta-gal in NIH3T3, luminescence, 90 h | inhibition, % (test concentration not listed) | 300,000 compounds, 1.4% hits | AID 1885;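 active means mean inhibition across valid replicates above about 55%, limit read from the data; inconclusive means mean below that limit but half or more replicates reach it; inactive means mean below it, under half of replicates reach it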;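 further: signal also drops with host cell toxicity which is not excluded here; 0% = plate median of DMSO wells and 100% = zero luminescence signal; higher percent means less beta-gal luminescence so fewer parasites; stock transfer was 50 nL into about 50 µL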
Vif A3G – HIV-1 Vif–A3G interaction blockers – biochemical, TR-FRET, GST-Vif 1-94, biotin-A3G peptide, dose response retest, primary screen (AID 1117319) | TR-FRET GST-Vif / biotin-A3G peptide binding; higher % means a stronger effect; test concentration not given here; strong numbers were not always called active | inhibition, %; hits with a dose series show IC50 in µM | 260,000 compounds, 0.57% hits;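 active means above the screen mean plus three standard deviations and confirmed in dose response; inconclusive means results disagree or hit not tested in dose response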;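 further: Vif residues 1-94 fused to GST binding biotinylated APOBEC3G peptide 110-148; 0% = full assay without inhibitor and 100% = GST in place of GST-Vif; retest series ran down from 100 µM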
RanGTP-Impb inh – inhibitors of RanGTP-importin-beta interaction, primary screen, biochemical, FRET, CFP-Ran, YFP-importin-beta, homogeneous | cell-free CFP-Ran/YFP-importin-beta FRET ratio | inhibition, % (concentration not given with the values) | 300,000 compounds, 1.1% hits;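 active means most replicates above 15%; inconclusive means exactly half above 15%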;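 further: 0% = DMSO wells and 100% = Ran loaded with GDP instead of GTP; wells of about 40 µL received 100 nL stock; the first replicate is given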
Calb FLC – affects C. albicans growth with fluconazole; C. albicans CaCi-2 (fluconazole-resistant clinical isolate) + fluconazole, Alamar Blue growth, 48 h; growth inhibition, % (test concentration not listed); 300,000 compounds, 0.57% hits;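 active means most replicates above 75%; inconclusive means exactly half above 75%; inactive means most below 75%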;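 further: all wells also contain fluconazole at 8 µg/ml as a sub-toxic cotreatment; 0% = median of DMSO wells and 100% = median of geldanamycin control wells; wells of about 8 µL received 7.5 nL stock; the first replicate is given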
rRNA inh HTS – selective bacterial rRNA inhibition in E. coli; E. coli WT GFP vs humanized-ribosome RFP mutants, fluorescence, 24 h; active compounds read low; DMSO median 0, no signal -100; GFP signal change (wild-type ribosome), % (no concentration beside the values); 350,000 compounds, 1.6% hits; AID 720706;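 active means significant combined selectivity score with lowered wild-type GFP, culture density cut under 30%, mutant RFP and density less affected; inactive means any of these conditions unmet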; further: one replicate is shown; some compounds called inactive have numbers as strong as hits
AF4-AF9 inh – blocks AF4 peptide binding to human AF9; AlphaScreen, biotin-AF4 peptide binding to FLAG-AF9; 350,000 compounds, 0.47% hits; inhibition, % at 10 µM; P42568;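 active means every replicate reaching a set inhibition limit, whatever the replicate mean, cut at about 25% in these data; inconclusive means mean inhibition reaches that limit but some replicates miss it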;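 further: 0% = plate neutral control median and 100% = total signal loss; the record names both 10 and 1 µM as test concentration; the first replicate is given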
Target sequence (P42568 whole entry, looked up): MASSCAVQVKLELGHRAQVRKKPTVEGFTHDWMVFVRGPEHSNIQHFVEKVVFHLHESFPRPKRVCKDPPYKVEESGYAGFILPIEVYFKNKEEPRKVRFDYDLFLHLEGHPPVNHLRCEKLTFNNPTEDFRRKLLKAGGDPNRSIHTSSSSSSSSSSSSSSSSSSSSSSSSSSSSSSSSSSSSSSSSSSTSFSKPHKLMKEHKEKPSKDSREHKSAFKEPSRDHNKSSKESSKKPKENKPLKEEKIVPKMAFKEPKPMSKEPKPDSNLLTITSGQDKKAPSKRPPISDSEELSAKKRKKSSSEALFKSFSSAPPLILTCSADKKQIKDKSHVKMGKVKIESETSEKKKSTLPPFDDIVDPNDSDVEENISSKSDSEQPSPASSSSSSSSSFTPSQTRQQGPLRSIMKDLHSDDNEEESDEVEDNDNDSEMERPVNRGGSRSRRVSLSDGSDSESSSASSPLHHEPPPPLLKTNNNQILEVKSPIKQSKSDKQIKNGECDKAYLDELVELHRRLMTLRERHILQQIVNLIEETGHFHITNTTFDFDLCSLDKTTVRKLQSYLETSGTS
A1 inh – inhibitors of the anti-apoptotic protein A1, read as caspase activation; MEF A1-2A-BIM cells, Caspase-Glo 3/7 luminescence, 3 h; percent of clofoctol response, vehicle zero; caspase activation, % (test concentration not listed); AID 2462; 330,000 compounds, 0.066% hits;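 active means over half of replicate activation scores above 10%, or exactly half above 10 with the replicate mean above 10; inconclusive means replicate mean below 10 yet half the replicates above 10; inactive means over half of replicates below 10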;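 further: wells of about 30 µL received 50 nL stock; many hits fall short of the cut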
Beta apoptosis – blocks beta cell apoptosis | 300,000 compounds, 0.8% hits | INS-1E cytokine-induced death, ATP luminescence, 48 h; percent of positive-control rescue, neutral wells zero | protection from apoptosis, % (test concentration not listed);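 active means all replicates at 75% or more, or half of them and the mean; inconclusive means half reach 75% but not the mean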;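 further: 0% = cytokine-treated negative control wells and 100% = positive control rescue; higher means more ATP so stronger rescue from cytokine killing; wells of about 40 µL received 100 nL stock; the first replicate is given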
rRNA inh HTS OD600 – also measured in rRNA inh HTS; calls as there; OD600 change, %; measured here: OD600 growth;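 optical density of the mix in the first replicate; 0 = DMSO median and -100 = no signal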
rRNA inh HTS RFP – further read-out of rRNA inh HTS, marked with its call; RFP signal change, %; measured here: RFP humanized mutant strains;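 first replicate; 0 = DMSO median and -100 = no signal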
Active calls of the source: *; ? = inconclusive; . = no result given; & = joins results of further samples.

Short forms: A = T cruzi inh; B = Vif A3G; C = RanGTP-Impb inh; D = Calb FLC; E = rRNA inh HTS; F = rRNA inh HTS OD600; G = rRNA inh HTS RFP; H = AF4-AF9 inh; I = A1 inh; J = Beta apoptosis
> CCCCC(=O)N/N=C(\C)CC(=O)Nc1cc(Cl)ccc1OC
  A = 10; B = 27%; C = 4.5; D = 0; E = .; F = .; G = .; H = .; I = -1.2; J = -5

> C/C(=N\NC(=S)Nc1cccc(C)c1)c1ccccc1
  A = 35; B = 5%; C = -1.3; D = -8; E = .; F = .; G = .; H = .; I = -0.8; J = 11

> COc1ccc(CNC(=O)c2cc(S(=O)(=O)N3CCCC3)cn2C)cc1
  A = -10; B = .; C = 3.0; D = 0; E = 0; F = 8; G = 13; H = -6.0; I = -0.2; J = -5

> CN(c1ccc(C(=O)NCCSC(C)(C)C)cc1)S(C)(=O)=O
  A = -5; B = 5%; C = 6.4; D = 25; E = .; F = .; G = .; H = .; I = -0.6; J = 0

> COc1ccc(CNC(=O)C2COc3ccccc3O2)cc1 (stereo unspecified)
  A = -1; B = 7%; C = -4.3; D = 4; E = .; F = .; G = .; H = .; I = -0.2; J = 4

> Cc1cc(=O)oc2cc(OCCC[n+]3ccccc3)ccc12
  A = 1; B = .; C = 2.5; D = -4; E = 1; F = -6; G = -1.4; H = -0.3; I = 3.3; J = -7

> Cc1ccc(C(=O)Oc2cccc(NC(=O)c3ccco3)c2)cc1S(=O)(=O)N1CCC(C)CC1
  A = 8; B = 2%; C = 0.8; D = 15; E = .; F = .; G = .; H = .; I = -0.8; J = 1

> COC(=O)c1ccc(C)c(-n2c(=O)n(Cc3ccccc3)c(=O)c3[nH]cnc32)c1
  A = -5; B = -3%; C = 1.8; D = -5; E = 1; F = -1; G = 1.4; H = -2.7; I = 0.3; J = -2

> COC(=O)CS(=O)(=O)c1cc([N+](=O)[O-])ccc1NC(=O)OC
  A = 3; B = 4%; C = -2.3; D = -5; E = 17; F = 9; G = -12; H = -1.2; I = 0.5; J = 1

> COC(=O)CN(C)C1CC(=O)N(c2ccc(Cl)cc2)C1=O (stereo unspecified)
  A = -4; B = -2%; C = 0.9; D = 2; E = .; F = .; G = .; H = .; I = 0.6; J = 2

Single entries from the entries so far.
Calb FLC with `Cc1ccc(C(=O)Oc2cccc(NC(=O)c3ccco3)c2)cc1S(=O)(=O)N1CCC(C)CC1` → 15
A1 inh with `COC(=O)c1ccc(C)c(-n2c(=O)n(Cc3ccccc3)c(=O)c3[nH]cnc32)c1` → 0.3
T cruzi inh with `COc1ccc(CNC(=O)c2cc(S(=O)(=O)N3CCCC3)cn2C)cc1` → -10

The list goes on:
Short forms: A = T cruzi inh; B = Vif A3G; C = RanGTP-Impb inh; D = Calb FLC; E = rRNA inh HTS; F = rRNA inh HTS OD600; G = rRNA inh HTS RFP; H = AF4-AF9 inh; I = A1 inh; J = Beta apoptosis
> COc1cc([N+](=O)[O-])ccc1NC(=O)Cn1ccsc1=N
  A = -11; B = -12%; C = -1.5; D = 36; E = 13; F = 7; G = -3.5; H = 2.0; I = -0.4; J = -2

> CCn1c(COc2ccccc2C)nnc1SCC(=O)CC(=O)Nc1ccccc1OC
  A = -1; B = 8%&-4%; C = -0.6; D = 7; E = .; F = .; G = .; H = .; I = 1.1; J = -1

> COc1cccc(CC(NC(C)=O)C(=O)NC2CCN(S(=O)(=O)c3ccc(NC(C)=O)cc3)CC2)c1 (stereo unspecified)
  A = -11; B = 2%; C = -2.2; D = 5; E = 17; F = 15; G = 1.8; H = -2.7; I = 0.5; J = -4

> O=C1/C(=C/c2ccc(O)cc2)CCc2ccc([N+](=O)[O-])cc21
  A = -21; B = 4%; C = 0.1; D = -11; E = 8; F = 6; G = 1.7; H = 2.1; I = 0.6; J = -11

> CC(=O)N1CCN(CCN=CC2=C(O)CC(c3ccco3)CC2=O)CC1 (stereo unspecified)
  A = 10; B = ?; C = 2.0; D = 8; E = .; F = .; G = .; H = .; I = 0.5; J = .

> COc1cccc(CN2CCC(n3nccc3NC(=O)CCOc3ccccc3)CC2)c1
  A = 5; B = .; C = 3.1; D = 0; E = 2; F = 2; G = -2.0; H = 2.5; I = -1.0; J = -3

> O=C(Cc1ccccc1)NCC(=O)N1CCCCCC1
  A = -19; B = 1%; C = 0.7; D = -6; E = .; F = .; G = .; H = .; I = 0.3; J = -10

> O=C(CN1C(=O)NC2(CCCC2)C1=O)Nc1cc(S(=O)(=O)N2CCCCC2)ccc1Cl
  A = .; B = .; C = .; D = .; E = 1; F = -4; G = -0.1; H = 3.1; I = 0.0; J = -7

> N/C(=N\OC(=O)CCCc1ccccc1)c1ccccc1
  A = -3; B = -3%; C = 0.3; D = -1; E = -8; F = 2; G = -7.2; H = -3.1; I = 0.1; J = .

> CC(C)Oc1ccc(N2CC(C(=O)Nc3ccccc3F)CC2=O)cc1 (stereo unspecified)
  A = -6; B = 2%; C = -2.3; D = 11; E = .; F = .; G = .; H = .; I = -0.2; J = -8

> O=C(c1cccnc1)N1CCN(C(=O)c2cccs2)CC1
  A = 1; B = 30%; C = -2.4; D = -2; E = .; F = .; G = .; H = .; I = 1.7; J = -3

> O=S(=O)(c1ccc(Cl)cc1)c1snnc1-c1ccccc1
  A = 60*; B = -7%; C = 5.1; D = 9; E = .; F = .; G = .; H = .; I = -1.0; J = 12

> Cc1ccc(-c2nc(CS(=O)CC(=O)NCc3ccc(Cl)cc3)c(C)o2)cc1 (stereo unspecified)
  A = -4; B = ?; C = 4.8; D = -11; E = 3; F = 15; G = 0.4; H = -4.9; I = 0.8; J = -7

> Cc1nc(CNC(=O)c2cc(COc3c(F)cccc3F)on2)cs1
  A = 8; B = -8%; C = -1.1; D = 2; E = -8; F = -4; G = -4.7; H = 4.9; I = 0.2; J = -3

> O=C(NNC1OC(CO)C(O)C(O)C1O)c1cccnc1 (stereo unspecified)
  A = -5; B = .; C = 5.9; D = -9; E = 10; F = 22; G = 0.0; H = -1.9; I = -0.4; J = -9

> CCOc1ccc(S(=O)(=O)N2CCC(C(=O)N3CCCC3)CC2)cc1C
  A = -11; B = .; C = 6.5; D = -2; E = 4; F = 6; G = 0.1; H = -0.6; I = -0.7; J = -5

> COc1ccc(C)cc1NC(=O)C(Sc1nnc(Nc2cc(C)ccc2OC)s1)c1ccccc1 (stereo unspecified)
  A = 50; B = -6%; C = -3.8; D = 27; E = .; F = .; G = .; H = .; I = 0.0; J = 1

> CSc1ncc(Cl)c(C(=O)C(C#N)c2nc3c(C)cc(C)cc3c(=O)[nH]2)n1 (stereo unspecified)
  A = -12; B = 5%; C = 0.1; D = 66; E = -37; F = -40; G = -7.8; H = 6.7; I = -0.2; J = -4

> CNC(=O)COC(=O)c1cc(=O)[nH]c2ccccc12
  A = -12; B = 4%; C = 2.2; D = 23; E = .; F = .; G = .; H = .; I = 1.2; J = -2

> Cc1cccc2cc(CN(CC3CCCO3)C(=O)c3ccco3)c3nnnn3c12 (stereo unspecified)
  A = 5; B = -8%; C = 1.4; D = 18; E = .; F = .; G = .; H = .; I = -0.1; J = -5

> COc1cccc(CNC(=O)Cn2ccc3cc(S(=O)(=O)N4CCCCCC4)ccc32)c1OC
  A = 9; B = .; C = -1.1; D = 4; E = -24; F = -19; G = 3.0; H = 0.0; I = -0.1; J = 5

> CCOc1ccc(CCNC(=O)COC(=O)c2ccccc2O)cc1OCC
  A = -4; B = ?; C = -1.0; D = 0; E = 13; F = 14; G = 2.3; H = -0.3; I = -0.5; J = -2

> Cc1ccc(S(=O)(=O)Nc2ccc(O)c(S(=O)(=O)c3ccc(C)cc3)c2)cc1
  A = -11; B = -5%; C = -0.4; D = 2; E = -17; F = -15; G = -3.5; H = -1.8; I = 1.1; J = -5

> CCn1cc(C(=O)Nc2ccc(C)cc2[N+](=O)[O-])c(C)n1
  A = -12; B = .; C = ?; D = -1; E = 14; F = -7; G = -2.1; H = 6.7; I = 0.8; J = -8

> O=C(CCc1ccccc1)Nc1ccc(S(=O)(=O)Nc2nccs2)cc1
  A = -9; B = 0%; C = -1.1; D = -20; E = -2; F = 0; G = 0.7; H = -0.2; I = -0.3; J = -2

> CN(C)CCCN(C(=O)COc1ccccc1)c1nc2c(F)cccc2s1
  A = 51; B = -2%; C = -0.4; D = -4; E = 5; F = 4; G = -4.7; H = 7.3; I = -0.3; J = -2

> Cc1ccc(CNC(=O)CN(c2ccc(Cl)cc2)S(C)(=O)=O)cc1
  A = -2; B = .; C = 0.2; D = 3; E = 17; F = 3; G = 4.5; H = -0.7; I = 1.1; J = .

> COc1ccc(-n2c(=S)[nH]c3cc(C(=O)NCc4ccco4)ccc3c2=O)cc1OC
  A = 6; B = -5%&9%&4%; C = 1.5; D = -2; E = 16; F = 13; G = 1.4; H = -1.3; I = -0.2; J = -10

> COc1ccccc1-c1oc2ccccc2c1-c1ccc2cc[nH]c2c1
  A = .; B = .; C = .; D = .; E = 3; F = 13; G = 35; H = 3.4; I = 1.2; J = 1

> O=C(O)c1ccc(Nc2nc(-c3ccccc3)c3ccccc3n2)cc1
  A = 1; B = 5%; C = -0.7; D = 56; E = -18; F = -31; G = -10; H = -3.0; I = 1.5; J = -6

> Cc1ccc(S(=O)(=O)NCC(c2ccccc2)N2CCCCC2)cc1 (stereo unspecified)
  A = -18; B = 0%; C = 6.4; D = 0; E = 2; F = -13; G = -5.0; H = 14; I = -0.2; J = -5

> CCCCCCCn1c(NC(=O)CC)nc2ccccc21
  A = 51; B = 2%; C = 3.9; D = -17; E = -56; F = -80; G = -16; H = 4.4; I = 0.2; J = 53

> Cc1ccc(N2CC(C(=O)Nc3ccccc3N3CCCC3)CC2=O)cc1 (stereo unspecified)
  A = 5; B = -5%; C = -0.7; D = 0; E = -4; F = 5; G = -1.7; H = -0.1; I = 0.0; J = 1

> COc1ccc(CC(=O)NCC(=O)N/N=C(/C)c2ccco2)cc1
  A = -5; B = 4%; C = 4.5; D = 20; E = 11; F = 13; G = 0.8; H = 0.2; I = -0.4; J = .

> Cn1c(SCC(=O)c2cc3ccccc3o2)nnc1-c1ccccc1
  A = 6; B = 9%; C = ?; D = 2; E = 5; F = 0; G = 1.6; H = 1.8; I = 0.3; J = 0

> COc1cccc(OCc2nc3ncc(Br)cc3[nH]2)c1
  A = -23; B = 2%; C = 1.2; D = -7; E = .; F = .; G = .; H = .; I = 0.1; J = 30

> Cc1cnc(C(=O)OCC(=O)N(C(C)C)C(C)C)cn1
  A = 4; B = -1%; C = 2.7; D = -26; E = .; F = .; G = .; H = .; I = 0.2; J = 2

> Cc1ccc(NC(=O)C2CCCN2S(=O)(=O)c2ccc3c(c2)n(C)c(=O)c(=O)n3C)cc1C (stereo unspecified)
  A = -16; B = 5%; C = 8.4; D = 0; E = 6; F = 10; G = -1.1; H = -1.4; I = 0.5; J = 3

Screens (PubChem BioAssay)

A portion of the library. The share of hits here may be higher or lower than overall.
